ALR inh – human ALR oxidase inhibition via reduced H2O2. P55789. purified ALR, DTT oxidation, H2O2 HRP-luminol luminescence. inhibition, % (test concentration not listed). hit rate 3.8% among 290,000;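 active = mean and each replicate at 75% or more; inconclusive = only one of the two met; inactive = neither met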;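 note: stock transfer was 7.5 nL into about 7.5 µL; 0% = neutral wells and 100% = wells with inactivated enzyme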
Target sequence (P55789 whole entry, looked up): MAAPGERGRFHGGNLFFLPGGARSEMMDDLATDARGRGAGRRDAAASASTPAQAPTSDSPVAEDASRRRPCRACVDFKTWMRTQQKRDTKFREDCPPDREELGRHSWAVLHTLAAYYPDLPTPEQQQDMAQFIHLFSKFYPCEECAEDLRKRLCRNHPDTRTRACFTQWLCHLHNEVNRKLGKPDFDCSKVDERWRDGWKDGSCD
HNF4A DNA FP – change in binding of human HNF4 alpha to DNA; P41235; HNF4a-FITC DNA binding, fluorescence polarization, 1 h; activity change, % at 10 µM; hit rate 0.3% among 360,000; in the data active = activity change above about 30%, passing the limit was not always enough;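 note: controls were the assay level and a saturating level of protein; the project sought stronger binding though the title names inhibitors; some compounds called inactive have numbers as strong as hits; positive values seem to mean higher polarization but the record does not say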
Vif A3G – inhibitors of Vif binding to APOBEC3G peptide, primary screen, biochemical, TR-FRET, GST-Vif 1-94, biotin-A3G peptide, dose response retest (AID 1117319); one-dose inhibition, %; IC50 in µM for titrated hits; hit rate 0.57% among 260,000; TR-FRET GST-Vif / biotin-A3G peptide binding; higher % means a stronger effect; test concentration not given here; strong numbers were not always called active;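 active = above the screen mean plus three standard deviations and confirmed in dose response; inconclusive = results disagree or hit not tested in dose response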;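 note: Vif residues 1-94 fused to GST binding biotinylated APOBEC3G peptide 110-148; 0% = full assay without inhibitor and 100% = GST in place of GST-Vif; retest series ran down from 100 µM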
Ecoli growth – E. coli growth inhibition | hit rate 0.21% among 330,000 | OD600 absorbance (concentration not given with the values) | Escherichia coli growth, OD600, 23 h; stronger effect = lower value | AID 1053175;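 active = OD600 absorbance below the run mean of sample wells minus 3.6 SD, in any replicate, cut at about 0.56 in these data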;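 note: stock transfer was 300 nL into about 60 µL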
Ecoli rRNA inh – selective bacterial rRNA inhibition in E. coli; GFP signal change (wild-type ribosome), % (concentration not given with the values); E. coli WT GFP vs humanized-ribosome RFP mutants, fluorescence, 24 h; stronger effect = lower value; DMSO median 0, no signal -100; hit rate 1.6% among 350,000;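 active = significant combined selectivity score with lowered wild-type GFP, culture density cut under 30%, mutant RFP and density less affected; inactive = any of these conditions unmet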; note: one replicate is shown; some compounds called inactive have numbers as strong as hits
MLL AF4-AF9 inh – inhibitors of human MLL-AF4/AF9 interaction. P42568. AlphaScreen, biotin-AF4 peptide binding to FLAG-AF9. inhibition, % at 10 µM. hit rate 0.47% among 350,000;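 active = every replicate reaching a set inhibition limit, whatever the replicate mean, cut at about 25% in these data; inconclusive = mean inhibition reaches that limit but some replicates miss it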;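 note: 0% = plate neutral control median and 100% = total signal loss; the record names both 10 and 1 µM as test concentration; the first replicate is given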
Target sequence (P42568 whole entry, looked up): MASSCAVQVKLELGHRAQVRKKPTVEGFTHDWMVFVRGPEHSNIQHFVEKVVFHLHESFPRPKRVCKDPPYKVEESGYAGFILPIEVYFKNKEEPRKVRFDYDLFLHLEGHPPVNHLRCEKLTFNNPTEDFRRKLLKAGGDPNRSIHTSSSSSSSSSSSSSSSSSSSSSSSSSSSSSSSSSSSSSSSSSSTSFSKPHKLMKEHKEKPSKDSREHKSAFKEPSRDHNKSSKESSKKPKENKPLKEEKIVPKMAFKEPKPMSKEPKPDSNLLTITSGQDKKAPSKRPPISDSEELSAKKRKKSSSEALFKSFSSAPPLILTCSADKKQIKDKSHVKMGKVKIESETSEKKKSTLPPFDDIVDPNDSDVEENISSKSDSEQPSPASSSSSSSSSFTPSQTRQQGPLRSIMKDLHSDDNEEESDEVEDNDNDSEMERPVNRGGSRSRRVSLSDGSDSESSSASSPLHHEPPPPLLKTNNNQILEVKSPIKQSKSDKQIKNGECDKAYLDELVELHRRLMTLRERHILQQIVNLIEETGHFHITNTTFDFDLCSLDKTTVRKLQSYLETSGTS
FGF22 binding – shifts melting point of recombinant human FGF22; recombinant FGF22 thermal shift, SYPRO orange fluorescence; percent of sucrose octasulfate shift, DMSO zero; calls only at 9.99 µM; hit rate 1.5% among 340,000; AID 651658;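 active = melting point raised past a set limit in the mean and every replicate; inconclusive = no clear call; three in four hits are not shown here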
Target sequence (Q9HCT0 whole entry, looked up): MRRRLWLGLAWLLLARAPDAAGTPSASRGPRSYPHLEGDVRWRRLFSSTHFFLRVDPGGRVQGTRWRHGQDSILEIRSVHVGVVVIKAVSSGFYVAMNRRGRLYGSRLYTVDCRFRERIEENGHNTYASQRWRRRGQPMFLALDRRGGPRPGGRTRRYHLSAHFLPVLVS
Ecoli rRNA inh OD600 – further read-out of Ecoli rRNA inh, marked with its call; OD600 change, %; measured here: OD600 growth;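 optical density of the mix in the first replicate; 0 = DMSO median and -100 = no signal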
Ecoli rRNA inh RFP – second read-out of Ecoli rRNA inh, no call of its own (marks repeat the call); RFP signal change, %; measured here: RFP humanized mutant strains;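 first replicate; 0 = DMSO median and -100 = no signal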
Numbers without * were called inactive; i = inactive; ? = inconclusive; . = no result given; & = joins results of further samples; ! = a repeat was not active. Not all compounds are listed; count on the stated rates, not on these rows.

SMILES	ALR inh	HNF4A DNA FP	Vif A3G	Ecoli growth	Ecoli rRNA inh	Ecoli rRNA inh OD600	Ecoli rRNA inh RFP	MLL AF4-AF9 inh	FGF22 binding
Cc1cc2nc(CCN3CCOCC3)n(S(=O)(=O)c3ccc(C(C)(C)C)cc3)c2cc1C	1.4	3.6	-0.8%	0.69	.	.	.	.	.
COCCNC(=O)[C@H]1N2C(=O)c3ccccc3C2SC1(C)C (stereo partly drawn)	-19.9	1.2	0.6%	0.678	4.7	17.1	-1.6	3.2	i
CO[C@@H]1CN(C)C(=O)c2ccc(NC(=O)C3CCC3)cc2OC[C@H](C)N(Cc2ccc(F)cc2)C[C@H]1C	.	.	.	.	2.5	-21.6	3.4	2.9	i
CCOC(=O)[C@@H]1[C@H]2COc3ccc(Br)cc3[C@@H]2N2C(=O)N(c3ccc(OC)cc3)C(=O)[C@]12C	2.8	-7.5	.	0.796	.	.	.	.	.
Cc1cc(C)c2[nH]c(=O)c(C(c3nnnn3Cc3ccc4c(c3)OCO4)N3CCC(C)CC3)cc2c1 (stereo not drawn)	-2.1	12.3	19.7%	0.75	.	.	.	.	.
O=C(CCCSc1nc2ccccc2[nH]1)Nc1ccccc1	43.8	-1.6	.	0.623	.	.	.	.	.
CC(C)CN1CC(C)C(=O)NC1=S (stereo not drawn)	.	2.2	-3.0%	0.732	4.8	4.9	-1.9	-1.1	i
O=C(NC1=NCCS1)c1ccc(OCC2CCCO2)cc1 (stereo not drawn)	-1.2	-3.1	1.3%	0.622	.	.	.	.	.
COc1ccc(-n2nc(C(=O)NCC(=O)N3CCN(c4ccccn4)CC3)c3ccccc3c2=O)cc1Cl	6.3	-0.9	-52.4%	0.728	10.2	6.7	-0.4	-0.7	i
COc1ccc(Cl)cc1S(=O)(=O)N1CCC(C(=O)NCC2CCCO2)CC1 (stereo not drawn)	-1.9	0.0	.	0.729	2.5	5.0	-2.1	-5.5	i
C/C(=N\NC(=O)c1nn(C)c(C)c1Br)c1cccc(NC(=O)c2ccc(F)cc2)c1	-5.8	1.4	.	.	-31.7	-33.2	-9.7	4.5	i
COc1cc(OC)c(OC)cc1CN(C)CC1CCCN(CCc2ccccc2F)C1 (stereo not drawn)	.	1.2	4.1%	0.662	10.1	6.0	0.4	7.2	i
Cc1c(N=C2Nc3cccc4cccc2c34)c(=O)n(-c2ccccc2)n1C	43.6	42.6*!	3.9%&18.4%	0.675&0.693	2.1&-12.2	4.5&-1.3	1.5&-4.5	9.2&4.8	i
O=C(Nc1ccc2c(c1)OCCO2)C1CC(O)CN1C(=O)Nc1ccccc1 (stereo not drawn)	-1.0	2.4	.	0.639	2.9	9.8	-0.7	-1.9	i
CN(C)S(=O)(=O)c1ccc2c(c1)C(=O)c1cc(S(=O)(=O)N(C)C)ccc1CC2	-7.0	-2.6	.	0.643	8.7	2.0	-5.2	-0.1	i
Fc1ccc(N2CCN(C(c3cccs3)c3nnnn3C3CCCC3)CC2)cc1 (stereo not drawn)	5.8	2.7	-3.0%	0.699	.	.	.	.	.
COc1ccc(CSc2nnc(C)s2)cc1F	1.8	-1.3	-2.3%	0.708	-4.3	0.0	2.6	-1.4	i
Cc1ccc(-c2nc3ccccc3c(=O)n2CCN2CCOCC2)cc1	.	-0.8	2.2%	0.636	.	.	.	.	.
CC(C)CCNC(=O)c1onc(CSc2ccc(F)c(F)c2)c1C(=O)NCCC(C)C	1.2	-4.6	-2.9%	0.713	2.1	4.9	-2.6	-2.2	i
CCCCn1ccnc1C(=O)c1cccc(S(=O)(=O)N2CC(C)CC(C)C2)c1 (stereo not drawn)	.	-2.9	1.0%	0.617	.	.	.	.	.
CC1(C)CC(NC(=O)C2CCCCC2)CC(C)(C)N1	-9.9	1.7	.	0.645	4.3	9.9	-2.0	-1.5	i
Cc1ccc(NS(=O)(=O)c2ccc(C(=O)NCCCN3CCOCC3)cc2)cc1	-0.5	4.4	-3.7%	0.688	4.8	5.8	2.0	23.2	i
CCN(CC)S(=O)(=O)c1ccc(N2CCOCC2)c(NC(=O)c2ccc(OC)c([N+](=O)[O-])c2)c1	.	2.0	.	0.688	2.7	2.5	-0.1	6.2	i
CN1C(=O)c2cc(NC(=O)c3cccc(C(F)(F)F)c3)ccc2OC[C@H]2O[C@H](CC(=O)NCCN3CCCC3)CC[C@H]21	.	.	.	.	2.4	9.3	-2.4	2.9	i
COc1ccc(C(=O)CSc2nc3ncccc3[nH]2)cc1OC	.	3.6	16.6%	0.618	5.7	-4.3	1.2	1.1	i

HNF4A DNA FP: hit marks shown above.
mol	ALR inh	HNF4A DNA FP	Vif A3G	Ecoli rRNA inh	Ecoli rRNA inh OD600	Ecoli rRNA inh RFP	MLL AF4-AF9 inh	FGF22 binding
Cc1c(N=C2Nc3cccc4cccc2c34)c(=O)n(-c2ccccc2)n1C	43.6	42.6*!	3.9%&18.4%	2.1&-12.2	4.5&-1.3	1.5&-4.5	9.2&4.8	i

Single records (already shown). Screens in order: ALR inh	HNF4A DNA FP	Vif A3G	Ecoli growth	Ecoli rRNA inh	Ecoli rRNA inh OD600	Ecoli rRNA inh RFP	MLL AF4-AF9 inh	FGF22 binding
O=C(Nc1ccc2c(c1)OCCO2)C1CC(O)CN1C(=O)Nc1ccccc1 (stereo not drawn) is listed as -1.0	2.4	.	0.639	2.9	9.8	-0.7	-1.9	i
Cc1cc(C)c2[nH]c(=O)c(C(c3nnnn3Cc3ccc4c(c3)OCO4)N3CCC(C)CC3)cc2c1 (stereo not drawn) is listed as -2.1	12.3	19.7%	0.75	.	.	.	.	.

Going on with the list:
SMILES	ALR inh	HNF4A DNA FP	Vif A3G	Ecoli growth	Ecoli rRNA inh	Ecoli rRNA inh OD600	Ecoli rRNA inh RFP	MLL AF4-AF9 inh	FGF22 binding
CCOC(=O)c1cc(CC)sc1NC(=O)CC1Sc2ccc(C(F)(F)F)cc2NC1=O (stereo not drawn)	0.5	2.2	-7.1%	0.714	.	.	.	.	.
CCOc1nc(Nc2ccc(OC)c(Cl)c2)nc(N2CCN(c3ccc(OC)cc3)CC2)n1	-0.8	0.8	-2.1%	0.824	.	.	.	.	.
CCC(C)(C)NC(=O)C(c1ccc(O)cc1)N(CCOC)C(=O)CCC(=O)Nc1nccs1 (stereo not drawn)	.	1.5	?	0.687	2.8	1.7	-0.1	0.7	i
O=C(CNS(=O)(=O)c1ccccc1)Nc1cccc([N+](=O)[O-])c1	-7.7	-0.5	4.8%	0.64	13.9	20.4	0.8	0.2	i
Cc1ccc(C(C)NC(=O)c2cc(C)oc2C)cc1 (stereo not drawn)	17.3	0.2	12.7%	0.692	.	.	.	.	.
COc1ccc(Sc2nc3ccccc3n3c(C(F)(F)F)nnc23)cc1	-4.0	-1.5	-4.0%	0.735	.	.	.	.	.
CCCC#Cc1cnc2c(c1)C(=O)N([C@H](C)CO)C[C@@H](C)[C@H](CN(C)C(=O)c1ccc(F)cc1)O2	.	.	.	.	-1.5	-9.1	-1.2	-1.5	i
O=C(Cc1ccccc1)N/N=C/c1ccc(S(=O)(=O)O)o1	8.8	-0.7	-3.2%	.	14.1	5.3	0.6	-2.7	i
COC(=O)c1cc2c(ccn2-c2ccc(F)cc2)n1CC(C)C	-66.2	1.5	84.9%	0.739	.	.	.	.	.
Cc1nnc(SCC(=O)N(CCC#N)c2ccc3c(c2)OCCO3)s1	1.4	-6.0	-3.6%	0.679	.	.	.	-1.5	i
CCCCNC(=O)CNC(=O)c1nn(-c2ccc(OC)c(Cl)c2)c(=O)c2ccccc12	.	-0.9	-6.9%	0.699	8.0	10.9	2.0	-2.1	i
O=C(NNC(=O)c1ccc[nH]1)c1cc(Cl)cc(Cl)c1	-11.6	0.2	17.7%	0.662	5.5	5.5	1.6	-0.3	i
COc1ccc(CCNC(=O)C/C(C)=N/NC(=O)c2cnccn2)cc1	11.6	0.3	0.8%	.	5.7	9.9	-3.7	-1.9	i
CO[C@H]1CC[C@H]2CCN(C)C(=O)CCCN(C)C(=O)c3cc(C#N)ccc3OC[C@H]1O2	.	.	.	.	2.4	1.0	-1.8	0.0	i
OCCC1CN(Cc2ccc3c(c2)CCO3)CCN1Cc1ccc(F)cc1 (stereo not drawn)	.	2.0	17.3%	0.735	8.5	9.5	-0.9	3.3	i
CCSc1nnc([C@H](Cc2ccccc2)NC(=O)OC(C)(C)C)o1	-12.6	-2.2	3.9%	0.707	.	.	.	.	.
O=C(c1ccc2c(c1)OCCO2)N1CCN(c2ncc(C(F)(F)F)cc2Cl)CC1	.	4.6	-1.1%	0.652	-7.1	-24.9	-10.3	-1.5	i
CSc1ncccc1C(=O)N1CCC1(C)C(=O)NC(C)C (stereo not drawn)	.	-1.6	.	.	8.0	3.1	-1.8	-2.2	i
CNC[C@H]1OCCCC[C@@H](C)Oc2ccc(NC(=O)Nc3ccc(OC)cc3)cc2C(=O)N([C@@H](C)CO)C[C@@H]1C	.	.	.	.	4.5	3.8	-3.1	9.6	i
O=C(O)C[C@@H]1C=C[C@@H](NC(=O)c2ccccc2F)[C@@H](CO)O1	.	.	.	.	1.1	2.1	-0.1	-12.9	i
Nc1ccc(Sc2nc3ccccc3[nH]2)cc1	.	0.3	22.0%	0.698	-21.8*	-17.4*	0.9*	0.0	i
N#CC1(NC(=O)COC(=O)c2cc(O)c3ccccc3c2O)CCCCC1	1.6	-1.0	16.3%	0.62	.	.	.	.	.
C[C@H](CO)N1C[C@H](C)[C@H](CN(C)Cc2ccc(-c3ccccc3)cc2)Oc2c(NC(=O)c3ccncc3)cccc2C1=O	.	.	.	.	-5.6	-17.8	-3.7	6.0	i

5 compounds out of the list, ordered by SMILES length, highest first.
SMILES	ALR inh	HNF4A DNA FP	Vif A3G	Ecoli growth	Ecoli rRNA inh	Ecoli rRNA inh OD600	Ecoli rRNA inh RFP	MLL AF4-AF9 inh	FGF22 binding
CNC[C@H]1OCCCC[C@@H](C)Oc2ccc(NC(=O)Nc3ccc(OC)cc3)cc2C(=O)N([C@@H](C)CO)C[C@@H]1C	.	.	.	.	4.5	3.8	-3.1	9.6	i
CO[C@H]1CC[C@H]2CCN(C)C(=O)CCCN(C)C(=O)c3cc(C#N)ccc3OC[C@H]1O2	.	.	.	.	2.4	1.0	-1.8	0.0	i
N#CC1(NC(=O)COC(=O)c2cc(O)c3ccccc3c2O)CCCCC1	1.6	-1.0	16.3%	0.62	.	.	.	.	.
Cc1nnc(SCC(=O)N(CCC#N)c2ccc3c(c2)OCCO3)s1	1.4	-6.0	-3.6%	0.679	.	.	.	-1.5	i
Cc1ccc(C(C)NC(=O)c2cc(C)oc2C)cc1 (stereo not drawn)	17.3	0.2	12.7%	0.692	.	.	.	.	.
